Bfl-1 A1 inh: inhibitors of the anti-apoptotic protein A1, read as caspase activation | MEF A1-2A-BIM cells, Caspase-Glo 3/7 luminescence, 3 h; percent of clofoctol response, vehicle zero | AID 2462 | caspase activation, % (concentration not given with the values) | hit rate 0.066% among 330,000;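 active = over half of replicate activation scores above 10%, or exactly half above 10 with the replicate mean above 10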;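 note: wells of about 30 µL received 50 nL stock; many hits fall short of the cut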
RanGTP-Imp inh: inhibitors of RanGTP-importin-beta interaction, primary screen, biochemical, FRET, CFP-Ran, YFP-importin-beta, homogeneous | cell-free CFP-Ran/YFP-importin-beta FRET ratio | inhibition, % (no concentration beside the values) | hit rate 1.1% among 300,000 | AID 2216;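 active = most replicates above 15%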;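 note: 0% = DMSO wells and 100% = Ran loaded with GDP instead of GTP; wells of about 40 µL received 100 nL stock; the first replicate is given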
Beta cell apopt: beta cell apoptosis inhibition | INS-1E cytokine-induced death, ATP luminescence, 48 h; percent of positive-control rescue, neutral wells zero | protection from apoptosis, % (concentration not given with the values) | hit rate 0.8% among 300,000;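 active = all replicates at 75% or more, or half of them and the mean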;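 note: 0% = cytokine-treated negative control wells and 100% = positive control rescue; higher means more ATP so stronger rescue from cytokine killing; wells of about 40 µL received 100 nL stock; the first replicate is given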
MLL AF4-AF9 inh: inhibitors of human MLL-AF4/AF9 interaction | P42568 | AlphaScreen, biotin-AF4 peptide binding to FLAG-AF9 | inhibition, % at 10 µM | hit rate 0.47% among 350,000;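 active = every replicate reaching a set inhibition limit, whatever the replicate mean, cut at about 25% in these data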;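 note: 0% = plate neutral control median and 100% = total signal loss; the record names both 10 and 1 µM as test concentration; the first replicate is given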
T cruzi inh: T. cruzi replication inhibition; inhibition, % (no concentration beside the values); T. cruzi beta-gal in NIH3T3, luminescence, 90 h; AID 1885; hit rate 1.4% among 300,000;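 active = mean inhibition across valid replicates above about 55%, limit read from the data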;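 note: signal also drops with host cell toxicity which is not excluded here; 0% = plate median of DMSO wells and 100% = zero luminescence signal; higher percent means less beta-gal luminescence so fewer parasites; stock transfer was 50 nL into about 50 µL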
LANA-H2A inh: blocks KSHV LANA binding to histone H2A/H2B; Q9QR71; cell-free LANA-H2A/H2B peptide, fluorescence polarization; inhibition, % (no concentration beside the values); hit rate 0.6% among 320,000; AID 2629; in the data active = inhibition mostly above about 10%, no sharp cut-off; inactive = mostly below about 6.7%;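 note: stock transfer was 7.5 nL into about 10 µL; 0% = median of vehicle wells and 100% = median of positive control wells; one replicate is shown; the record names a cut of 25% in any replicate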
Target sequence (Q9QR71 whole entry, looked up): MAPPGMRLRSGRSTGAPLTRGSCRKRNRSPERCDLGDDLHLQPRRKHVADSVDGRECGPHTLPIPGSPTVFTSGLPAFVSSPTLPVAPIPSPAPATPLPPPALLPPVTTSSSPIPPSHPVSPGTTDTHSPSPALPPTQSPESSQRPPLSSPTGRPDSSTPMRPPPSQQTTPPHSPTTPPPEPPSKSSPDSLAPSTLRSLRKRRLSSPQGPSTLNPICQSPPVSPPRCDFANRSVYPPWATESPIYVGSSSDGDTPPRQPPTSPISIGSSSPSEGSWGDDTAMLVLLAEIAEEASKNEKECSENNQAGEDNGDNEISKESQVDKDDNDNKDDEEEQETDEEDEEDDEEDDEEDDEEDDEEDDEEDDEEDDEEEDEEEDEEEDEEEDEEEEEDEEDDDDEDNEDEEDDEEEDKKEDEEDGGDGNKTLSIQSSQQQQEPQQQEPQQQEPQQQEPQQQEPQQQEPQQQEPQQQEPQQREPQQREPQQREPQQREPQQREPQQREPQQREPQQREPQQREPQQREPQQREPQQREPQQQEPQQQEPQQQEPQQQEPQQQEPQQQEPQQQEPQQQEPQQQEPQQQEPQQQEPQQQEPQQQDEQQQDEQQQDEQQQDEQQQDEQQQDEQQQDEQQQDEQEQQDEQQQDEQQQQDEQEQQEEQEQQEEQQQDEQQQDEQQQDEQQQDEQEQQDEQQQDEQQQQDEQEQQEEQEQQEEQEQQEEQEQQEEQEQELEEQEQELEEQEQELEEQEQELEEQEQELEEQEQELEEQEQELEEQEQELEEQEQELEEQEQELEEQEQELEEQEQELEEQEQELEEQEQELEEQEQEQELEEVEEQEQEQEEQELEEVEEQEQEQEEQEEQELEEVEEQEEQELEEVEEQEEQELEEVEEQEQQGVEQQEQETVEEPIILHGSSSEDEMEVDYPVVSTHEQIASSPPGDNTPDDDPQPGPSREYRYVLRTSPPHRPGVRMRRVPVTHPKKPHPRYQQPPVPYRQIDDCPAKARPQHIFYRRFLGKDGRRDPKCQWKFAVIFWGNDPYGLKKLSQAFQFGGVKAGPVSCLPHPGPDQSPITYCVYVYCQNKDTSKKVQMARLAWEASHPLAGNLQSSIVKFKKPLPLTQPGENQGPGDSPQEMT
Numbers without * were called inactive.

SMILES	Bfl-1 A1 inh	RanGTP-Imp inh	Beta cell apopt	MLL AF4-AF9 inh	T cruzi inh	LANA-H2A inh
O=C(CCN1CCN(CCO)CC1)N1c2ccccc2Sc2ccc(C(F)(F)F)cc21	-0.7	0.0	-12.4	-1.0	14.7	-9.1

The list is partial; rates above refer to the full screens.
